High-throughput results deposited in PubChem by several laboratories.
Beta cell apopt: beta cell apoptosis inhibition; INS-1E cytokine-induced death, ATP luminescence, 48 h; percent of positive-control rescue, neutral wells zero; protection from apoptosis, % (test concentration not listed); actives 0.8% (n = 300,000); AID 435005;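 active = all replicates at 75% or more, or half of them and the mean; inconclusive = half reach 75% but not the mean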;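 note: 0% = cytokine-treated negative control wells and 100% = positive control rescue; higher means more ATP so stronger rescue from cytokine killing; wells of about 40 µL received 100 nL stock; the first replicate is given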
T cruzi repl: blocks replication of Trypanosoma cruzi; T. cruzi beta-gal in NIH3T3, luminescence, 90 h; inhibition, % (concentration not given with the values); actives 1.4% (n = 300,000); AID 1885;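 active = mean inhibition across valid replicates above about 55%, limit read from the data; inconclusive = mean below that limit but half or more replicates reach it; inactive = mean below it, under half of replicates reach it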;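 note: signal also drops with host cell toxicity which is not excluded here; 0% = plate median of DMSO wells and 100% = zero luminescence signal; higher percent means less beta-gal luminescence so fewer parasites; stock transfer was 50 nL into about 50 µL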
RanGTP-Imp inh: disruptors of Ran-importin-beta complex formation – biochemical, FRET, CFP-Ran, YFP-importin-beta, homogeneous, primary screen | cell-free CFP-Ran/YFP-importin-beta FRET ratio | inhibition, % (test concentration not listed) | actives 1.1% (n = 300,000);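 active = most replicates above 15%; inconclusive = exactly half above 15%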;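 note: 0% = DMSO wells and 100% = Ran loaded with GDP instead of GTP; wells of about 40 µL received 100 nL stock; the first replicate is given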
Bfl-1 A1 inh: inhibitors of the anti-apoptotic protein A1, read as caspase activation; caspase activation, % (test concentration not listed); actives 0.066% (n = 330,000); MEF A1-2A-BIM cells, Caspase-Glo 3/7 luminescence, 3 h; percent of clofoctol response, vehicle zero;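 active = over half of replicate activation scores above 10%, or exactly half above 10 with the replicate mean above 10; inconclusive = replicate mean below 10 yet half the replicates above 10; inactive = over half of replicates below 10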;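 note: wells of about 30 µL received 50 nL stock; many hits fall short of the cut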
UCH37 inh: blocks the human deubiquitinase UCH37; Q9Y5K5; purified proteasome/UCH37, Ub-AMC cleavage fluorescence; inhibition, % (test concentration not listed); actives 0.33% (n = 330,000); AID 588478;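 active = mean of two replicates above 20%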;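 note: 0% = compound-free wells with enzyme and 100% = wells lacking proteasome; stock transfer was 100 nL into about 20 µL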
Target sequence (Q9Y5K5 whole entry, looked up): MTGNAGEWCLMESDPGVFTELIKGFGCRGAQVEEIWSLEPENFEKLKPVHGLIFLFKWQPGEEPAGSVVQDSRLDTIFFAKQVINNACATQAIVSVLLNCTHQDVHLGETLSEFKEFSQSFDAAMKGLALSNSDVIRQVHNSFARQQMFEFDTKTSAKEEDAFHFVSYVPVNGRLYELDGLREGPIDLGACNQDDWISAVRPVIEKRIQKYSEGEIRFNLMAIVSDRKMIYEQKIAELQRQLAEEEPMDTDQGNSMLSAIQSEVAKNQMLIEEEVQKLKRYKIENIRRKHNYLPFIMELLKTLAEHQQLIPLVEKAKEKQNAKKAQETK
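Material: Human UCH37 enzyme supplied as purified proteasome complex | Schedule: 30 min compound-proteasome preincubation then 25 min substrate reaction, room temperature | Detection: AMC fluorescence from Ub-AMC cleavage, excitation 355 nm, emission 460 nm | Benchmarks: Wells without proteasome as full block, compound-free enzyme plus substrate as uninhibited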
LANA-H2B inh: blocks KSHV LANA binding to histone H2A/H2B; actives 0.6% (n = 320,000); inhibition, % (no concentration beside the values); cell-free LANA-H2A/H2B peptide, fluorescence polarization; in the data active = inhibition mostly above about 10%, no sharp cut-off; inactive = mostly below about 6.7%;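 note: stock transfer was 7.5 nL into about 10 µL; 0% = median of vehicle wells and 100% = median of positive control wells; one replicate is shown; the record names a cut of 25% in any replicate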
B2AR ag: agonists of human beta-2 adrenergic receptor inducing internalization; actives 0.43% (n = 340,000); response, % (concentration not given with the values); P07550; AID 504454; Am2.2-beta2AR cells, FAP receptor internalization, flow cytometry; reference of the scale not given here;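 active = response above a set limit, near 3 SD of response in nonfluorescent compounds, cut at about 42% in these data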;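 note: stock transfer was 100 nL into about 11 µL; a reference agonist was the positive control; negative values mostly stem from fluorescent compounds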
Target sequence (P07550 whole entry, looked up): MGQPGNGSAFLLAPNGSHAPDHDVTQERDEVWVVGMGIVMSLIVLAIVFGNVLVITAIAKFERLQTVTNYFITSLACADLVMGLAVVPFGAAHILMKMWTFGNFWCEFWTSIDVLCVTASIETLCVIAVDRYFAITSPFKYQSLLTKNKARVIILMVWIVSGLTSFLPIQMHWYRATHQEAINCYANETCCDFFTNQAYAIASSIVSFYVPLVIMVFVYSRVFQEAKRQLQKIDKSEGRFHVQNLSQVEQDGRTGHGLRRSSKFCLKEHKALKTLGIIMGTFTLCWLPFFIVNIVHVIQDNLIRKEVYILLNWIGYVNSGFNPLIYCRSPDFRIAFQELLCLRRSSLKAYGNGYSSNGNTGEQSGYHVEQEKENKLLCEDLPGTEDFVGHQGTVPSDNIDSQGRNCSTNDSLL
Calb FLC: C. albicans growth modulation with fluconazole; actives 0.57% (n = 300,000); AID 1979; C. albicans CaCi-2 (fluconazole-resistant clinical isolate) + fluconazole, Alamar Blue growth, 48 h; growth inhibition, % (concentration not given with the values);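 active = most replicates above 75%; inconclusive = exactly half above 75%; inactive = most below 75%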;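 note: all wells also contain fluconazole at 8 µg/ml as a sub-toxic cotreatment; 0% = median of DMSO wells and 100% = median of geldanamycin control wells; wells of about 8 µL received 7.5 nL stock; the first replicate is given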
Numbers without * were called inactive; u = inconclusive; x = not tested or not shown.

cpd	SMILES	Beta cell apopt	T cruzi repl	RanGTP-Imp inh	Bfl-1 A1 inh
1	CCOc1ccc(NC(=O)COC(=O)c2cccnc2)cc1	0	-13	-2.6	1.2
2	CCOC(=O)Cc1cc(=O)[nH]c(=O)[nH]1	-1	-21	-1.2	0.9
3	O=C(Nc1ccncc1)Nc1cccc(C(F)(F)F)c1	5	41	7.5	0.1
4	Cc1nc(NC(=O)c2ccc(-c3cc4ccccc4oc3=O)cc2)ccc1Br	11	-7	-1.0	0.5
5	CNC(=O)C12N=CNN=C1N(C)C(=O)N2C (configuration not stated)	2	-15	-0.8	0.1
6	c1ccc(C(c2nnnn2C2CCCC2)N2CCCCCC2)nc1 (configuration not stated)	x	-36	u	0.7
7	Cc1cc(S(=O)(=O)Nc2ccc(C(=O)NCC(c3ccco3)N3CCCC3)cc2)ccc1F (configuration not stated)	1	64*	9.2	0.2
8	COc1ccc(-n2nnc3c(=O)n(CC(=O)N4CCC(Cc5ccccc5)CC4)cnc32)cc1	-2	16	u	-0.4
9	N#Cc1c(-c2ccccc2)nc(N2CCN(Cc3ccccc3)CC2)[nH]c1=O	1	-13	0.1	-1.3
10	COc1ccc(NC(=O)C2=NNC(=O)CC2)cc1S(=O)(=O)N1CCCCC1	-2	-4	-0.3	-0.5
11	Cc1c(NC(=O)NC2CCCCC2)cccc1[N+](=O)[O-]	5	2	2.0	-0.3
12	COc1cccc(CNc2ccccn2)c1O	-1	3	-1.7	2.6

cpd	UCH37 inh	LANA-H2B inh	B2AR ag	Calb FLC
1	5.7	2.7	-2	3
2	0.7	0.7	1	-18
3	1.6	2.4	-3	-4
4	-62	1.1	19	-5
5	1.3	4.2	1	-12
6	-6.5	1.4	-4	-9
7	3.5	-6.7	4	0
8	1.3	2.0	-13	-8
9	4.3	-1.7	18	-10
10	1.9	-0.1	-4	3
11	2.1	3.4	-11	2
12	x	0.2	-1	-4

One compound at a time, as listed above. Values in the order: Beta cell apopt, T cruzi repl, RanGTP-Imp inh, Bfl-1 A1 inh, UCH37 inh, LANA-H2B inh, B2AR ag, Calb FLC
Shown for Cc1cc(S(=O)(=O)Nc2ccc(C(=O)NCC(c3ccco3)N3CCCC3)cc2)ccc1F (configuration not stated) : 1, 64*, 9.2, 0.2, 3.5, -6.7, 4, 0
Shown for O=C(Nc1ccncc1)Nc1cccc(C(F)(F)F)c1 : 5, 41, 7.5, 0.1, 1.6, 2.4, -3, -4
Shown for COc1cccc(CNc2ccccn2)c1O : -1, 3, -1.7, 2.6, x, 0.2, -1, -4

Continued:
cpd	SMILES	Beta cell apopt	T cruzi repl	RanGTP-Imp inh	Bfl-1 A1 inh
13	O=C(OCc1nc2ccsc2c(=O)[nH]1)c1cccc(S(=O)(=O)N2CCOCC2)c1	x	-1	-1.9	0.8
14	COc1cccc(NC(=O)COc2cccnc2[N+](=O)[O-])c1	1	x	x	-0.4
15	COc1ccc(/C=N/NC(=O)c2cccnc2)cc1CN1CCN(c2ccc(F)cc2)CC1	3	-3	1.3	-0.2
16	Cc1cccc(Nc2cnn(C34CC5CC(CC(CC(=O)O)(C5)C3)C4)c(=O)c2Cl)c1	1	1	0.3	0.9
17	COc1cc(OC)c(C(=O)Nc2ccc(S(=O)(=O)N3CCCCC3)cc2)cc1OC	3	-16	3.7	-0.3
18	O=C(O)CCCN=Cc1c(O)c2ccccc2oc1=O	-4	-4	-6.0	0.1
19	Cc1ccc2nc(-c3ccc(NC(=O)CN4C(=O)NC(C)(c5ccc(OC(F)F)cc5)C4=O)cc3)sc2c1 (configuration not stated)	-1	43	3.7	-0.7
20	COc1ccc(/C=C2\Sc3ccc(C(=O)N4CCc5ccccc5C4)cc3N(C)C2=O)cc1	1	11	-1.5	1.1
21	O=C(CSc1nnc(-c2cccs2)n1C1CC1)NC1CCS(=O)(=O)C1 (configuration not stated)	-3	x	x	1.5
22	Cc1ccc(OCC(=O)Nc2cccnc2Cl)cc1C	-14	-5	3.1	-1.3
23	CCCCCC(=O)N1CC2(CC)CN(C(=O)CCCCC)CC(CC)(C1)C2=O	-4	7	-2.3	0.5
24	Cc1c(C(=O)OC(C)C)sc(NC(=O)C2CCCO2)c1C(=O)OC(C)C (configuration not stated)	9	42	-1.0	0.4

cpd	UCH37 inh	LANA-H2B inh	B2AR ag	Calb FLC
13	4.4	2.8	5	-4
14	4.9	-1.7	0	x
15	x	-4.2	-8	-20
16	13	-11	11	6
17	0.5	2.9	10	-15
18	6.8	0.1	-1	-5
19	-72	-0.2	8	-10
20	x	x	x	19
21	0.7	-2.7	-4	x
22	0.8	0.5	10	10
23	1.7	0.6	-3	-8
24	3.1	7.7	5	-13

(listing goes on)
cpd	SMILES	Beta cell apopt	T cruzi repl	RanGTP-Imp inh	Bfl-1 A1 inh
25	CC(=O)NCC(=O)NC(C(=O)Nc1ccc2c(c1)OCCO2)c1ccccc1 (configuration not stated)	-12	-7	1.7	0.2
26	O=c1c2ccccc2nc(-c2ccco2)n1Cc1ccccc1	2	4	0.3	-7.9
27	Cc1cccc(N2CC(C(=O)NCc3ccco3)CC2=O)c1C (configuration not stated)	-1	x	x	-0.1
28	COc1cc(F)c(C2=CC(=O)C[C@H](c3ccc(Cl)cc3)C2)cc1F	2	x	x	0.4
29	O=C(Nc1ccc(F)cc1)C1CCN(C(=O)c2ccc(F)cc2)CC1	-3	x	x	-0.1
30	CCOc1cc(C(=O)Nc2ccon2)cc(OCC)c1OCC	0	-1	u	-0.4
31	CCCCC(=O)N/N=C(C)/C=C/c1ccccc1F	x	-8	3.6	x
32	ON1C(c2ccccc2C(F)(F)F)N(O)[C@H]2CCCC[C@H]21 (some centres not stated)	-2	-5	-3.8	-0.2
33	Cc1ccc(NC(=O)C2CCN(S(=O)(=O)c3ccc4c(c3)C(C)(C)C(=O)N4C)CC2)c(C)c1	12	-7	u	0.1
34	CCC(OC(=O)C(NC(=O)c1ccccc1)c1ccccc1)C(=O)Nc1cc(C)on1 (configuration not stated)	4	-18	0.3	-0.5
35	COc1ccc(NS(=O)(=O)c2ccc(N)cc2)nn1	10	-11	0.6	-0.1
36	Cc1ccc(-n2nc3c(=O)n(C(C)C(=O)NC4CC4)nc(C)c3c2C)cc1 (configuration not stated)	-2	-1	4.6	1.3

cpd	UCH37 inh	LANA-H2B inh	B2AR ag	Calb FLC
25	-2.3	-4.5	2	1
26	6.6	0.1	-17	4
27	2.4	-0.7	-6	x
28	3.0	1.9	-10	x
29	-3.0	-1.9	-1	x
30	6.3	0.9	-14	-23
31	x	x	1	-3
32	2.7	3.8	10	7
33	7.5	-1.9	4	12
34	0.7	-1.0	8	-6
35	2.4	3.4	x	x
36	0.5	0.5	9	1

Exported with each value named: 4 of the compounds above.
35	COc1ccc(NS(=O)(=O)c2ccc(N)cc2)nn1
  Beta cell apopt: 10 | T cruzi repl: -11 | RanGTP-Imp inh: 0.6 | Bfl-1 A1 inh: -0.1 | UCH37 inh: 2.4 | LANA-H2B inh: 3.4 | B2AR ag: x | Calb FLC: x
36	Cc1ccc(-n2nc3c(=O)n(C(C)C(=O)NC4CC4)nc(C)c3c2C)cc1 (configuration not stated)
  Beta cell apopt: -2 | T cruzi repl: -1 | RanGTP-Imp inh: 4.6 | Bfl-1 A1 inh: 1.3 | UCH37 inh: 0.5 | LANA-H2B inh: 0.5 | B2AR ag: 9 | Calb FLC: 1
26	O=c1c2ccccc2nc(-c2ccco2)n1Cc1ccccc1
  Beta cell apopt: 2 | T cruzi repl: 4 | RanGTP-Imp inh: 0.3 | Bfl-1 A1 inh: -7.9 | UCH37 inh: 6.6 | LANA-H2B inh: 0.1 | B2AR ag: -17 | Calb FLC: 4
30	CCOc1cc(C(=O)Nc2ccon2)cc(OCC)c1OCC
  Beta cell apopt: 0 | T cruzi repl: -1 | RanGTP-Imp inh: u | Bfl-1 A1 inh: -0.4 | UCH37 inh: 6.3 | LANA-H2B inh: 0.9 | B2AR ag: -14 | Calb FLC: -23

(further entries)
cpd	SMILES	Beta cell apopt	T cruzi repl	RanGTP-Imp inh	Bfl-1 A1 inh
37	Cc1ccc(NS(=O)(=O)c2c(C(=O)N3CCOCC3)c(C)n(C)c2C)cc1	-3	-6	u	1.9
38	CCC(=O)N(C)CCc1cc2c(c(OC)c1/C=N/NC(=O)c1ccncc1)OCO2	-2	-10	-1.1	0.8
39	CCC(=O)Nc1ccc(C(=O)NNC(=O)c2cccs2)cc1	-4	5	-2.9	1.0
40	NS(=O)(=O)c1ccc2nc(NC(=O)CS(=O)(=O)c3ccccc3)sc2c1	2	4	5.9	-0.6
41	CCN(CC(=O)NCc1cccs1)CC(=O)Nc1ccc(C(N)=O)cc1	-3	x	x	-0.7
42	CCc1nc(N2CCN(S(C)(=O)=O)CC2)c2c3c(sc2n1)CCCC3	5	-2	0.2	0.3
43	COCC(C)n1c(SCC(=O)NCCC2=CCCCC2)nc2ccccc2c1=O (configuration not stated)	-3	18	2.3	0.6
44	CCOC(=O)c1cc(-c2csc(COc3ccccc3)n2)on1	6	-19	4.1	-0.6
45	COC(=O)c1ccc(NC(=S)Nc2ccccc2)cc1	-6	-45	-0.5	0.0
46	CCn1c(SCC(=O)N2CCN(C(=O)c3ccco3)CC2)nnc1C(C)C	-2	-2	3.8	-0.2
47	COC(=O)c1cnn(-c2ccc(Cl)cc2)c1/C=N/NC(N)=S	-5	-41	6.2	-0.4
48	Cn1c(=N)n(CC(=O)C(C)(C)C)c2ccccc21	7	-6	3.1	-0.3
49	Cc1cc(OCC(O)CN2CCc3ccccc3C2)cc(C(C)C)c1 (configuration not stated)	-3	1	3.2	1.9

cpd	UCH37 inh	LANA-H2B inh	B2AR ag	Calb FLC
37	4.1	5.3	7	0
38	x	-2.1	6	-3
39	2.9	-5.5	4	-10
40	0.3	-1.7	8	4
41	4.6	3.8	-6	x
42	2.0	5.7	-1	15
43	4.7	1.6	7	4
44	3.6	-2.0	-4	2
45	4.7	-3.3	0	16
46	-0.1	4.8	2	10
47	x	-1.0	6	0
48	3.6	2.4	0	-18
49	x	-2.8	-5	-2
